Bioassay records (PubChem)
ClpP mod = qHTS Assay for Activators of ClpP; 1.9% of 340,000 active; purified B. subtilis ClpP, FRET peptide cleavage, 20 min; ATP-dependent Clp protease proteolytic subunit (Bacillus subtilis (strain 168)), P80244; Potency, µM (titrated, usually from 57.5 µM), for inactives: at the highest dose activity change, negative = active; active = well fitted falling curve with a large enough effect; inconclusive = small, poorly fitted or top-dose-only effect; inactive = no such curve, though single readings can be large or run the other way; note: potency is the fitted concentration of half-maximal effect; the source files actives as falling curves though it sought activators and does not explain the sign; nearly all actives have a fitted effect of over 65% in size; many hits overshoot -100%
Target sequence (P80244 whole entry, looked up): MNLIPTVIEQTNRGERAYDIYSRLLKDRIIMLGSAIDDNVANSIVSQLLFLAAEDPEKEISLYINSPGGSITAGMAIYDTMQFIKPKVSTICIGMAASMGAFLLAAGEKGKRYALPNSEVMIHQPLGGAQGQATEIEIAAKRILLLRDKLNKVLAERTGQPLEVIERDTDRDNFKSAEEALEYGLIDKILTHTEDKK
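Buffer: 100 mM Tris/HCl pH8, 100 mM KCl, 0.05% low protease BSA, 2.5% glycerol, 0.01% Tween-20. ClpP 10 microg/mL final; 20 min RT; delta FRET normalized to ADEP and DMSO controls.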
Sfp inh = qHTS Assay for Inhibitors of Bacillus subtilis Sfp phosphopantetheinyl transferase (PPTase); Biochemical Sfp PPTase activity, qHTS; Potency, µM, inactives show max response, negative = inhibition, usual class: inhibitors; 3.5% of 310,000 active; AID 1490, 2009; active = well fitted inhibition curve with a large enough effect; inconclusive = small, poorly fitted or top-dose-only effect, or another doubt; inactive = no such curve, though single readings can be large or run the other way;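 note: the enzyme is Sfp with the accession as filed and its product quenches rhodamine fluorescence; potency is the fitted concentration of half-maximal effect; 0% = enzyme reaction without inhibitor and -100% = no enzyme wells; top concentration of the series not given in the record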
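Compounds were incubated with enzyme (final 15 nM) for 15 min at room temperature before substrate addition started the reaction. Fluorescence at 525 nm excitation, 598 nm emission was recorded immediately and after 30 minutes.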
D2 potentiator = Beta-Arrestin HTS for Positive Allosteric Modulators of the Human D2 Dopamine Receptor: Potentiators. DiscoveRx D2 beta-arrestin cells, luminescence, 90 min; 100% = 57 uM dopamine signal. AID 624464, 2012. D(2) dopamine receptor (Homo sapiens), P14416. 0.23% of 360,000 active. potentiation, % (test concentration not listed); active = potentiation of 50% or more; inconclusive = 30% to 50%; inactive = 30% or less;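 note: compound concentration not given in the record; tested on top of an EC20 dose of dopamine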
Target sequence (P14416 whole entry, looked up): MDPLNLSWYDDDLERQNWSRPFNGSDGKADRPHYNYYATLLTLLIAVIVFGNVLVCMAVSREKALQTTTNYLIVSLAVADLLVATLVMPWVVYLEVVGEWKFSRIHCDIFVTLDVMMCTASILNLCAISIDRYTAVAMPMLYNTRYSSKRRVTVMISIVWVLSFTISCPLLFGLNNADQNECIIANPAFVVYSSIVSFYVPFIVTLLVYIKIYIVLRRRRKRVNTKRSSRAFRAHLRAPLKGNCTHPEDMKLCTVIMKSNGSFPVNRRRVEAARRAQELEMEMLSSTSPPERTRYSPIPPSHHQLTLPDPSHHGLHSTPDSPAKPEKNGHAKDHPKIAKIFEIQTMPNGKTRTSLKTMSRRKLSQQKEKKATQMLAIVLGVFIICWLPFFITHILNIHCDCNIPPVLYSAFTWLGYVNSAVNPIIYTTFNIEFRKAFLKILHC
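PathHunter beta-arrestin assay in DiscoveRx D2 cells. Compounds were added with an EC20 of dopamine (50 nM final) for 90 min at 37 deg C. Luminescence was read 1 h after detection reagent, with 57 uM dopamine as the EC100 control.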
TRPV1 potentiator = HTS Assay for Compounds that Act as Potentiators of the Vanilloid Receptor 1. TRPV1-expressing cells, Fluo-8 calcium influx, capsaicin EC20 potentiation; host cell line not named in the record; control for the full effect not named in the record. potentiation, % at 8.33 µM. 0.02% of 320,000 active. AID 540277, 2011; active means potentiation above 80%; inconclusive means 30% to 80%; inactive means below 30%; note: 0% is about no effect
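TRPV1-expressing cells were cultured overnight at 35.5C and loaded with Fluo-8 calcium dye for 40 to 90 min at room temperature. After a 10 s baseline, compound was added and calcium influx was read kinetically for 3 min (ex 480/em 520 nm).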
Menin MLL FP FL = qHTS Assay for Inhibitors Targeting the Menin-MLL Interaction in MLL Related Leukemias: Competition With Fluorescein Labeled MLL-derived Peptide. Fluorescence polarization, fluorescein-MLL peptide displacement from menin. FP activity change, % at 61.4 µM. 290,000 tested, under 10 active. AID 1766, 2009; inconclusive = falling polarisation curve, or a change in total fluorescence; inactive = total fluorescence flat and polarisation flat or rising; no compound was filed as active; the % refers to the polarisation; negative = inhibition;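 note: % of control where 0% means no effect; inhibitors lower the polarisation; unlabelled MLL peptide was the positive control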
gsp ag = qHTS for Agonist of gsp, the Etiologic Mutation Responsible for Fibrous Dysplasia/McCune-Albright Syndrome: qHTS. gsp mutant cells, cAMP HTRF, 30 min; control for the full effect not named in the record. Potency, µM (titrated, usually from 76.9 µM), for the others: at the top dose activation (cAMP increase), actives largely listed as activators. 0.13% of 340,000 active; active = well fitted activation curve with a large enough effect; inconclusive = small, poorly fitted or top-dose-only effect, or another doubt; inactive = no such curve, though single readings can be large or run the other way; cell line not stated here;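 note: phosphodiesterase inhibitor Ro 20-1724 added with compounds to block cAMP breakdown; potency is the fitted concentration of half-maximal effect; nearly all actives have a fitted effect of over 60% in size; about a fifth of the inactives were tested at one dose only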
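Cells stably selected in G418 were plated at 2000/well, grown 16-24 hr, then given compounds in DMSO with the PDE inhibitor […] (300 uM solution added) for 30 min at 37C; cAMP was read by HTRF.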
gsp antag = qHTS for Antagonists of gsp, the Etiologic Mutation Responsible for Fibrous Dysplasia/McCune-Albright Syndrome: qHTS. gsp-mutant cells, cAMP HTRF, 30 min; control for the full effect not named in the record. Potency, µM (highest dose often 76.9 µM), without a hit: at the highest dose activity change, negative = inhibition, hits mostly inhibitors. 0.4% of 340,000 active. AID 624288, 2012; active = falling curve of any shape with a large fitted effect; inconclusive = falling curve, mostly with a smaller effect; inactive = flat or rising curve; cell line not stated here;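 note: intracellular cAMP measured with PDE inhibitor Ro 20-1724 present during compound exposure; potency is the fitted concentration of half-maximal effect; % is set by controls: 0 for no effect and ±100 for the full control effect; nearly all actives have a fitted effect of over 65% in size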
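HTRF cAMP measurement after 30 min RT detection following 30 min, 37C compound treatment alongside […] (added as 300 uM solution) in G418-selected cells seeded at 2000/well and grown 16–24 h.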
Numbers without * were called inactive; ? = inconclusive; · = not tested or not shown; & = joins results of further samples; [ ] = remark or other dose. The order is random; 5.1% or so of the library scored in one or more.

item	smiles	ClpP mod	Sfp inh	D2 potentiator	TRPV1 potentiator
1	C/C=C(/C)C(=O)Nc1cccc(C2=NOC3(C2)C[C@H](C(N)=O)N(C(=O)COc2ccc(Cl)cc2)C3)c1 (stereo partly specified)	-0.1%	10%	-8	-22
2	CN1CCC(N(C)S(=O)(=O)c2ccc(NC(=O)COc3ccc(Br)cc3Cl)cc2)CC1	·	·	-33	6
3	Cc1nc(N)sc1C(=O)N/N=C/c1c[nH]c2ccccc12	-3.5%	?	-15	0
4	CC(C)CCNC(=O)C1CC(=O)N(CCc2ccccc2)C1 (stereo unspecified)	·	10%	3	1
5	Cc1ccc(CNC(=O)C2CCCN(c3nc4ccsc4c(=O)s3)C2)cc1 (stereo unspecified)	·	17%	2	-10
6	COC(=O)c1cc(NC(=O)CCc2c(C)nc3ncnn3c2C)cc(C(=O)OC)c1	-2.0%	18%	0	5
7	COC(=O)c1ccccc1NC(=O)NN1CCN(C)CC1	-0.8%	10%	-2	16
8	O=C(CSc1cccc[n+]1[O-])Nc1cc(Cl)ccc1[N+](=O)[O-]	0.0%	·	2	·
9	CCOC(=O)CCCCC(=O)c1[nH]c(=O)[nH]c1CSc1nnc2c3cc(Br)ccc3n(C)c2n1	·	?	·	-4
10	CCOC(=O)c1ccccc1NC(=O)c1cc(S(=O)(=O)N2CCOCC2)ccc1F	?	5%	5	-10
11	Cc1cc(NC(=O)CCC(=O)N(c2ccc(F)cc2)C(C(=O)NC2CCCC2)c2ccccc2)no1 (stereo unspecified)	·	18%	-4	8
12	O=C(c1cc(-c2ccc(Cl)cc2Cl)on1)N1CCOCC1	-0.1%	12%	-17	-1

item	Menin MLL FP FL	gsp ag	gsp antag
1	-5.5	4%	-4%
2	·	-39%[15.4 µM]	16%
3	3.4	?	5%
4	6.9	-12%	2%
5	-3.7	7%	?
6	-1.0	?	7%
7	·	-27%	15%
8	·	-9%	-6%
9	2.0	·	·
10	7.6	-6%	-15%
11	0.8	3%[15.4 µM]	0%
12	-0.1	-20%	-8%

Whole records, looked up by structure. Screens in order: ClpP mod | Sfp inh | D2 potentiator | TRPV1 potentiator | Menin MLL FP FL | gsp ag | gsp antag
COC(=O)c1cc(NC(=O)CCc2c(C)nc3ncnn3c2C)cc(C(=O)OC)c1 is listed with -2.0% | 18% | 0 | 5 | -1.0 | ? | 7%
CCOC(=O)CCCCC(=O)c1[nH]c(=O)[nH]c1CSc1nnc2c3cc(Br)ccc3n(C)c2n1 is listed with · | ? | · | -4 | 2.0 | · | ·

More entries follow.
item	smiles	ClpP mod	Sfp inh	D2 potentiator	TRPV1 potentiator
13	C=C(C)C(=O)Nc1nnc(-c2ccccc2C)s1	-0.2%	2%	-23	2
14	COc1ccccc1NC(=O)Nc1ccncc1	2.5%	5%	-11	-6
15	O=C(CN1CCC(O)(c2cccc(C(F)(F)F)c2)CC1)NCCc1ccccc1	·	8%	-8	-8
16	Cc1cccc(C)c1NC(=O)N1CC(C)OC(C)C1 (stereo unspecified)	-0.3%	20%	-10	-6
17	COc1cc(OC)c2c(-c3ccccc3)cc(=O)oc2c1C(CCN1CCCC(C)C1)c1ccc2c(c1)OCO2 (stereo unspecified)	-2.8%	?	-22	10
18	Cc1ccc(NC(=O)Nc2nnc(-c3ccncc3)s2)cc1	-17%	6%	4	-3
19	CC(=O)c1ccc(OCC(C)Oc2ccc(C#N)cc2)cc1 (stereo unspecified)	-0.3%	-10%	-16	-21
20	CC(C)CC(NC(=O)C(CC(C)C)NC(=O)OC(C)(C)C)C(=O)O (stereo unspecified)	-5.9%	-14%	-12	-6
21	Cc1cc(NC(=O)CSc2nnc3ccc(-c4ccc(F)cc4)nn23)no1	·	·	-5	2
22	Cc1cc(C(F)(F)F)nc(Nc2nc(C)c3ccccc3n2)n1	-1.4%	-5%	-20	-7
23	N#CCSc1nc2ccccc2c2nc3ccccc3n12	-28%	-5%	-6	3
24	O=C(Nc1cccc(-c2ccc(N3CCOCC3)nn2)c1)c1ccc(F)cc1F	0.5%	·	-3	-11

item	Menin MLL FP FL	gsp ag	gsp antag
13	-2.4	-4%[15.4 µM]	-15%
14	3.3	3%	5%
15	-1.1	25%	5%
16	3.9	?	4%
17	3.8&5.3	·	13%
18	-2.7	-33%[inhibitor]	50µM*
19	3.0	-15%	-7%
20	2.6	1%	6%
21	·	11%[15.4 µM]	5%
22	3.0	?	19%
23	11	8%[15.4 µM]	-3%
24	·	14%[15.4 µM]	-7%

The list continues:
item	smiles	ClpP mod	Sfp inh	D2 potentiator	TRPV1 potentiator
25	Cc1cccc(NS(=O)(=O)c2ccc(C(=O)N3CCCC3)cc2)c1C	·	·	0	-6
26	CC1Cc2ccccc2N1S(=O)(=O)c1cnc[nH]1 (stereo unspecified)	0.9%	14%	-13	?
27	CC1(CCCN2C(=O)c3ccccc3C2=O)OCCO1	·	·	-8	·
28	Cc1nn(C(CC(=O)O)C(=O)O)c(C)c1Br (stereo unspecified)	-7.5%	8%	-17	3
29	CCCCN1C(=O)c2ccc(C(=O)Nc3ccc(C)c(S(=O)(=O)N(C)C)c3)cc2C1=O	-2.3%	22%	-16	-12
30	O=C(Nc1ccc2c(c1)OCCO2)C1CCCN(S(=O)(=O)c2cccc3nsnc23)C1 (stereo unspecified)	-0.5%	-2%	-10	3
31	O=C(N/N=C/c1cccs1)[C@H]1C[C@@H]1c1ccccc1	0.3%	4%	2	1
32	c1ccc(-c2cc(-c3nc4ccccc4[nH]3)c3ccccc3n2)cc1	18µM*	6%	-15	-2
33	CC(C)(C)c1ccc(C(=O)NC(=S)Nc2ccc(N3CCOCC3)cc2)cc1	3.3%	-2%	-8	-3
34	CCOc1ccc(NC(=O)CN(C)C(=O)CC2CC3CCC2C3)cc1OCC (stereo unspecified)	-2.4%	6%	-17	8
35	C[C@H](NC(=O)[C@@H]1CSC2c3ccccc3C(=O)N21)C(=O)NCCc1ccc(F)cc1 (stereo partly specified)	-1.6%	8%	-30	-8
36	CC(C)N(CCNCc1nnc(-c2ccccc2)o1)C(C)C	1.0%	-22%	-3	-5

item	Menin MLL FP FL	gsp ag	gsp antag
25	·	-19%[15.4 µM]	0%
26	4.6	12%	3%
27	·	6%[15.4 µM]	11%
28	-3.9	-13%	5%
29	-0.6	-11%	28µM*
30	7.1	-3%	?
31	2.6	-36%[inhibitor]	8%
32	6.3	-30%[inhibitor]	?
33	0.8	14%	-7%
34	-2.1	-2%[15.4 µM]	-1%
35	·	-34%[inhibitor]	-6%
36	-1.0	0%	7%

Pulled by structure from above:
item	smiles	ClpP mod	Sfp inh	D2 potentiator	TRPV1 potentiator
36	CC(C)N(CCNCc1nnc(-c2ccccc2)o1)C(C)C	1.0%	-22%	-3	-5
33	CC(C)(C)c1ccc(C(=O)NC(=S)Nc2ccc(N3CCOCC3)cc2)cc1	3.3%	-2%	-8	-3
28	Cc1nn(C(CC(=O)O)C(=O)O)c(C)c1Br (stereo unspecified)	-7.5%	8%	-17	3

item	Menin MLL FP FL	gsp ag	gsp antag
36	-1.0	0%	7%
33	0.8	14%	-7%
28	-3.9	-13%	5%

(continued)
item	smiles	ClpP mod	Sfp inh	D2 potentiator	TRPV1 potentiator
37	CCN(CC)C(=O)Cn1cnc2sc(C)c(S(=O)(=O)N3CCC(C)CC3)c2c1=O	·	1%	1	1
38	CC(=O)c1cc2c(cc1NC(=O)Cn1cnc3ccccc3c1=O)OCO2	-22%	·	-3	-12
39	C=C(C)C(=O)OCC(C)C	0.6%	·	-4	-15
40	COc1ccccc1CCN1CCCC(CN(C)C(=O)CCC(N)=O)C1 (stereo unspecified)	-2.9%	13%	-6	-20
41	Cc1ccc(NS(=O)(=O)c2ccc(-n3cccn3)cc2)cc1Cl	-1.3%&-0.1%	·	-5	·
42	Cc1ccc(C2C(C#N)=C(N)Oc3cc(C)oc(=O)c32)o1 (stereo unspecified)	-0.4%	5%	-3	-9
43	O=S(=O)(NCCCN1CCOCC1)c1ccc2ccccc2c1	·	-9%	-10	-4
44	O=C(Nc1ccc(N2CCN(C(=O)c3ccccc3)CC2)cc1)c1ccc(Br)o1	0.4%	0%	-3	-13
45	O=C(COC(=O)c1c(F)cccc1F)Nc1ccc(N2CCCCC2)cc1	2.2%	·	0	·
46	COC(=O)c1cc(Cl)cc2c(CCO)c[nH]c12	-8.1%	·	3	·
47	NC(=O)C1(N2CCCCC2)CCN(C(=O)c2ccccc2)CC1	-0.7%	6%	-7	2
48	CC(=O)c1cccc(NC(=O)Nc2ccc(C(=O)N3CCOCC3)cc2)c1	0.0%	-8%	-2	19

item	Menin MLL FP FL	gsp ag	gsp antag
37	1.0	-9%[15.4 µM]	9%
38	·	17%	8%
39	·	·	6%
40	-1.9	6%	8%
41	·	-68%[inhibitor]	·
42	-2.4	20%	-1%
43	-1.3	-2%	10%
44	1.3	-51%[inhibitor]	?
45	·	16%	10%
46	·	?	-8%
47	-0.5	25%	15%
48	5.3	3%	1%
